GIRK2 act – GIRK2 channel activation | P48051 | HEK293-GIRK2 thallium flux, Thallos fluorescence | calls only for hits at 25 µM | 63,000 compounds, 0.05% hits | AID 1259325;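 active = among the strongest 0.2% of first-round signals and kept after retests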;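 note: first round at about 10 µM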
Target sequence (P48051 whole entry, looked up): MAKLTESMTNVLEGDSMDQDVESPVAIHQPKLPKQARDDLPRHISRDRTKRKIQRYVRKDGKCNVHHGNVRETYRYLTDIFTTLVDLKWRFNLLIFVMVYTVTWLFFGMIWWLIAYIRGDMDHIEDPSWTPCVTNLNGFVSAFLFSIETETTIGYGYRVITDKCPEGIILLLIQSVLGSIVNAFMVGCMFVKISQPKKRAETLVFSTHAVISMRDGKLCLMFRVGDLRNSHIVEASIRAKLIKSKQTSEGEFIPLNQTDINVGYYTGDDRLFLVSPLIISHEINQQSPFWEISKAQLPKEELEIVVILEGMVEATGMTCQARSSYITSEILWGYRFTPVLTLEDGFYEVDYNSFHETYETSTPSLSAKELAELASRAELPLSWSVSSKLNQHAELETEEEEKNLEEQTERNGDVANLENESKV
Calls only; i = inactive. Some of the compounds tested (hit frequency here may not be typical).

canonical_smiles	GIRK2 act
COc1cc(NS(=O)(=O)c2ccc(NC(=O)c3ccc(S(=O)(=O)N4CCCCCC4)cc3)cc2)nc(OC)n1	i
CC1CC(C)CN(S(=O)(=O)c2ccc(C(C)(C)C)cc2)C1 (centres undefined)	i
COc1ccc(S(=O)(=O)N2CCCCC2CC(=O)NCc2ccc(C)cc2)cc1 (centres undefined)	i
O=C1CCc2cc(S(=O)(=O)N3CCN(Cc4ccccc4)CC3)cc3c2N1CC3	i
Cc1cn2c3c(=O)n(C)c(=O)n(C)c3nc2n1CCN1CCCCCC1	i
O=C(NCCC1CCCCC1)N1CCN(c2ccccc2)CC1	i
O=[N+]([O-])c1ccccc1S(=O)(=O)NCCOc1ccc(-c2ccccc2)nn1	i
Cc1cc(NC(=O)c2ccc(Br)o2)sn1	i
CC1CCN(S(=O)(=O)c2cccn(CC(=O)NCc3ccc4c(c3)OCO4)c2=O)CC1	i
O=S(=O)(CCOc1ccccc1)N1CCc2ccccc21	i
COCCNC(=O)NCc1ccc(C(=O)c2cccs2)s1	i
O=C(Nc1ccc(N2CCCS2(=O)=O)cc1)C1(c2cccs2)CCCC1	i
Cn1cc(C2=C(c3cn(C)c4ccc(Cl)cc34)C(=O)NC2=O)c2ccccc21	i
O=C(NCC(O)c1cccc2ccccc12)c1ccc(OC(F)(F)F)cc1 (centres undefined)	i
Cc1cccc2sc(N3CCN(C(=O)Nc4c(F)cccc4F)CC3)nc12	i
COc1cccc(N2CCCn3c2nc2c3c(=O)n(Cc3cccc(C)c3)c(=O)n2C)c1	i
CC1CCN(c2nc(=O)n(CC(=O)Nc3ccc4c(c3)OCCO4)c3ccccc23)CC1	i
N#Cc1cnc2ccc(F)cc2c1N1CCC(C(=O)NCc2ccccc2)CC1	i
CCCn1c(=N)c(S(=O)(=O)c2ccc(F)cc2)cc2c(=O)n3ccccc3nc21	i
COc1ccc(Cn2c(=O)c3sccc3n(Cc3nc(-c4ccccc4OC)no3)c2=O)cc1	i
Cc1sc(NC(=O)c2ccccc2F)c(CN2CCN(c3ccccc3F)CC2)c1C	i
CCOC(=O)c1cnn2ccc(NC(=O)c3cn(C)nc3OC)cc12	i
CCOC(=O)COc1ccc2c(=O)c(-c3ccc(OC)cc3)c(C(F)(F)F)oc2c1	i
C=C(C)Cn1c(=O)c2c(nc3n(-c4ccc(C(F)(F)F)cc4)c(C)cn23)n(C)c1=O	i
Cn1nc(C2CCN(CC(=O)Nc3nccs3)CC2)n(-c2ccccc2)c1=O	i
Cn1nc(-c2cccs2)cc1C(=O)Nc1ccc(F)c(F)c1	i
COc1ccc(NC(=O)C2CCCN(c3ncnc4c3oc3ccccc34)C2)cc1 (centres undefined)	i
COCCNC(=O)N1CCN(Cc2nc3ccccc3n2C)CC1	i
O=C(CN1CCN(S(=O)(=O)c2ccc(F)cc2)CC1)Nc1ccc(Cl)c(Cl)c1	i
COc1cc(C(=O)Oc2ccc3c(c2)O/C(=C\c2ccc([N+](=O)[O-])cc2)C3=O)cc(OC)c1OC	i
CCCCNC(=O)c1ccc(-n2ccnc2SCC(=O)Nc2ccc(OC)cc2OC)cc1	i
O=C(Cn1c(=O)oc2ccccc21)N1CCN(C(=O)C2CC2c2cccs2)CC1 (centres undefined)	i
CCOC(=O)c1ccc(NS(=O)(=O)c2ccc(N3C(=O)CCC3=O)cc2)cc1	i
O=C(c1ccc(Cn2ccnc2)cc1)N1CCCC(c2nnc(-c3ccccc3F)s2)C1 (centres undefined)	i
COC(=O)c1c(NCc2cc(OC)ccc2OC)c2cc(Cl)ccc2[nH]c1=O	i
COc1nn(C)cc1C(=O)Nc1ccc(C(=O)NCC(F)(F)F)cc1	i
COc1ccc(-c2nc(CSc3nc4ccccc4c(=O)n3Cc3ccco3)c(C)o2)c(OC)c1	i
O=C(NCCC(O)C1CC1)C1c2ccccc2Oc2ccccc21 (centres undefined)	i
COC(=O)c1ccccc1NC(=O)Cn1ncn2nc(-c3ccc(Cl)cc3)cc2c1=O	i
NS(=O)(=O)c1ccc(CCn2c(SCC(=O)NCc3ccccc3)nc3ccccc3c2=O)cc1	i
CCCCC[C@H](O)/C=C/[C@@H]1[C@@H](C/C=C\CCCC(=O)O)[C@H](O)C[C@H]1O	i
COc1ccc(-n2nnc(-c3nsc(Nc4ccccc4OC)n3)c2C)cc1	i
O=C(Cn1c(-c2ccc(F)cc2)nc2c(c1=O)CCN(Cc1ccccc1)C2)NCc1ccccc1	i
CC(C)c1ccc(CNC(=O)c2ccc(CS(=O)(=O)Cc3ccccc3F)o2)cc1	i
N#Cc1ccc(NC(=O)Cn2nc3c(SCc4ccc(Cl)cc4)nccn3c2=O)cc1	i
Cc1ccc(C)c2sc(N(C)CC(=O)Nc3cccnc3)nc12	i
C=CCn1c(=O)c2c(nc3n(-c4ccc(OC)cc4)c(C)cn23)n(C)c1=O	i
COc1cccc(-c2c(NC(=O)c3ccc(OC)c(OC)c3)oc3ccccc3c2=O)c1	i
CCOc1ccc(CC(=O)Nc2ccc3c(c2)CCCN3S(=O)(=O)c2ccc(C)cc2)cc1	i
CCn1c(=O)c([N+](=O)[O-])c(N2CCN(Cc3ccc4c(c3)OCO4)CC2)c2ccccc21	i

Of the compounds above, 4 have two or more sulfur atoms.
canonical_smiles	GIRK2 act
COc1cc(NS(=O)(=O)c2ccc(NC(=O)c3ccc(S(=O)(=O)N4CCCCCC4)cc3)cc2)nc(OC)n1	i
COCCNC(=O)NCc1ccc(C(=O)c2cccs2)s1	i
O=C(Nc1ccc(N2CCCS2(=O)=O)cc1)C1(c2cccs2)CCCC1	i
NS(=O)(=O)c1ccc(CCn2c(SCC(=O)NCc3ccccc3)nc3ccccc3c2=O)cc1	i

(cont.)
canonical_smiles	GIRK2 act
Cc1ccc(N2C(=O)C3C(C2=O)C2(C(C)C)C=CC3(C)CC2)cc1 (centres undefined)	i
COc1cc(NC(=O)CSC2=NS(=O)(=O)c3ccccc3N2)cc(OC)c1	i
CCOC(=O)NCc1nn(CCN2CCCC2)c(=O)c2ccccc12	i
CCOC(=O)N1CCC(NC(=O)Cc2cc(=O)[nH]c(SCc3ccc(F)cc3)n2)CC1	i
COC(=O)N1CCC(C(=O)O)CC1	i
COc1ccc(NC(=O)Cn2cnc3c(-c4ccncc4)nsc3c2=O)cc1Cl	i
CS(=O)(=O)N1CCCc2ccc(NC(=O)c3ccc4nsnc4c3)cc21	i
CCOc1ccc(NC(=O)Cn2c(C)cc(C)c(-c3nc(-c4cccc(Cl)c4)no3)c2=O)cc1	i
CCSc1nnc(NC(=O)CN2CCN(CC(=O)c3ccco3)CC2)s1	i
COc1ccc(Cl)cc1NC(=O)Cn1nc(SC)c(-c2nc(-c3ccc(C)cc3)no2)c1N	i
COCC(C)NC(=O)c1cn(C(C)C)cc2c(=O)[nH]nc1-2 (centres undefined)	i
O=Cc1coc2ccc(Cl)cc2c1=O	i
Cc1ccccc1NC(=O)/C=C/C1=Cc2ccccc2OC1	i
O=C(c1cccs1)N1CCN(CCNC(=O)C2(c3cccs3)CCCC2)CC1	i
Nc1c(C(=O)NCCc2ccccc2)c2nc3ccccc3nc2n1/N=C\c1ccco1	i
COc1ccc(CCNC(=O)Cn2nc3cc(-c4nc(C)no4)ccn3c2=O)cc1OC	i
Cc1nc2sccn2c1-c1nnc(SCc2ccc(Cl)cc2Cl)n1C	i
CCOc1ccc(-c2noc(Cn3nc(-c4ccc(CC)cc4)ccc3=O)n2)cc1	i
COc1ccccc1N1CCN(c2nccnc2SCC(=O)NCc2cccs2)CC1	i
COC(CNC(=O)C1(c2ccc(Cl)cc2)CCCC1)c1ccsc1 (centres undefined)	i
COc1cccc(-n2nnc(C(=O)Nc3ccc(C(=O)O)cc3)c2C)c1	i
CC1(C)Cc2cccc(OCC(=O)N3CCC(c4nnc(C5CC5)o4)CC3)c2O1	i
Cc1ccc(C)c(S(=O)(=O)N2CCC(Oc3ncccc3Cl)CC2)c1	i
CC1(C)C2CCC1(CS(=O)(=O)N1CCN(c3ccc(F)cc3)CC1)C(=O)C2 (centres undefined)	i
Cn1c(C(F)(F)F)nn(CCNS(=O)(=O)Cc2cccc(F)c2)c1=O	i

Overlap with the part before: two compounds, followed by the next part.
canonical_smiles	GIRK2 act
CC1(C)C2CCC1(CS(=O)(=O)N1CCN(c3ccc(F)cc3)CC1)C(=O)C2 (centres undefined)	i
Cn1c(C(F)(F)F)nn(CCNS(=O)(=O)Cc2cccc(F)c2)c1=O	i
COc1ccc(S(=O)(=O)c2c(C(=O)N3CCC(C)CC3)cnc3ccccc23)cc1	i
COC1=CC(=O)C(O)C2(C)Oc3cc(C)cc(O)c3C(=O)C12O (centres undefined)	i
COc1nn(C)cc1C(=O)NC1CC(O)C(CO)C1 (centres undefined)	i
CCOc1ccc(S(=O)(=O)NCC(O)c2ccc3c(c2)CCO3)cc1F (centres undefined)	i
O=C(NCCOc1ccc(-c2ccccn2)nn1)c1csc(-c2ccccc2)n1	i
Cn1cc(C(=O)N2CCc3nc(NC(=O)c4ccoc4)sc3C2)nn1	i
O=C(CCc1ccccc1)Nc1sc2c(c1-c1nc3ccccc3s1)CCCC2	i
O=C(CN1CCc2nc(NC(=O)C3CCC3)sc2C1)Nc1cc(C(F)(F)F)ccc1Cl	i
Cc1oc(-c2cccc(Cl)c2)nc1CSc1n[nH]c(=O)c2cc(-c3cccs3)nn12	i
COc1cccc(-c2nnc(NC(=O)c3cccc(C)c3)o2)c1	i
O=S1(=O)CCC(CNS(=O)(=O)c2ccccc2F)C1 (centres undefined)	i
COc1ccc(SCC2CCN(C(=O)/C=C/c3ccc(OC)c(OC)c3)CC2)cc1	i
COc1ccc(CC(=O)N2CCC(Cn3ccnc3)CC2)cc1OC	i
COc1ccccc1N1C(=O)N(c2cccc(C(F)(F)F)c2)C2CS(=O)(=O)CC21 (centres undefined)	i
O=C(Cc1ccc(F)cc1)NCCc1nc2c(c(C(F)(F)F)n1)CCCC2	i
O=C(NCCOc1ccccc1)N(CCc1ccccc1)Cc1ccccn1	i
O=C1c2oc3ccc(Cl)cc3c(=O)c2C(c2cccc(Cl)c2)N1Cc1cccnc1 (centres undefined)	i
CN(C)S(=O)(=O)N1CCC(Oc2ccc(C#N)cn2)CC1	i
COc1cc(NC(=O)Nc2ccc3c(c2)CCCN3C(=O)C2CC2)cc(OC)c1OC	i
COC(=O)c1cn(Cc2cccc(C(F)(F)F)c2)nc1S(=O)(=O)N1CCSCC1	i
Nc1c(C(=O)NCC2CCCO2)sc(=S)n1Cc1ccccc1 (centres undefined)	i
Cc1cccc(N2CCN(C(=O)C3CCN(c4cc(Oc5ccccc5)ncn4)CC3)CC2)c1C	i
COc1cc(COCC2CCN(Cc3cn4ccccc4n3)CC2)cc(OC)c1	i
CC1CN(c2ccc(Oc3ccccc3)cc2)c2nc3c(c(=O)n(C)c(=O)n3C)n2C1 (centres undefined)	i
O=C(COc1ccccc1)Nc1nc2c(s1)COCC2	i
O=C(Nc1cc2ccccc2oc1=O)c1ccc(-n2ccnc2)nn1	i
O=C(Nc1ccc(S(=O)(=O)Nc2ncccn2)cc1)c1cc(=O)c(OCc2ccccc2)c[nH]1	i
CS(=O)(=O)N1N=C(c2cccs2)CC1c1cn(-c2ccccc2)nc1-c1ccccc1 (centres undefined)	i
Cc1nccn1-c1cc(NCCNC(=O)c2cccc(C(F)(F)F)c2)ncn1	i
O=C(Cn1cc(S(=O)(=O)N2CCCC2)ccc1=O)Nc1ccc(Br)cc1	i
CCOc1ccccc1C(=O)Nc1ccc(-n2nnc(C(=O)NC3CC3)n2)cc1	i
COc1ccc(OCC(=O)Nc2ccc3c(c2)N(CCC(C)C)C(=O)C(C)(C)CO3)cc1	i
CCOC(=O)CCC(=O)N1CCN(C(=O)C2CC2c2ccccc2)CC1 (centres undefined)	i
CC(=O)c1ccc(N2CCN(c3ncc4c(=O)n(-c5ccccc5)c(=O)[nH]c4n3)CC2)cc1	i
COc1cc2nc(SCC(=O)NCC3CCCO3)n3nc(C)nc3c2cc1OC (centres undefined)	i
Cc1c(C(=O)NCCc2cccs2)nnn1-c1nc(-c2ccccc2)cs1	i
COc1ccccc1-n1cnnc1CN1CCN(C(=O)c2cccn2C)CC1	i
Cc1cn2c3c(=O)[nH]c(=O)n(C)c3nc2n1CCCN1CCC(C(N)=O)CC1	i
CN(CC(=O)N1CCN(c2ncccn2)CC1)c1nc2c(C(F)(F)F)cccc2s1	i
O=c1oc2c3c(ccc2cc1-c1ccccc1)OCN(C1CC1)C3	i
Cc1cc(C)c(NC(=O)Cn2c(C(=O)NCc3cccc(Cl)c3)cccc2=O)c(C)c1	i
COC(=O)c1ccccc1NC(=O)C1CCCN(c2ccc(-c3ccccc3)nn2)C1 (centres undefined)	i
O=C(Nc1ccc2c(c1)OCO2)c1cc(OCc2ccccc2)no1	i
O=C1CCCCN1c1ccc(NS(=O)(=O)Cc2cccc(Cl)c2)cc1	i
O=S(=O)(c1cccnc1)N(CC(F)(F)F)C1CCOCC1	i
CCOC(=O)c1sc2ccccc2c1S(=O)(=O)N1CCN(c2cccc(OC)c2)CC1	i
Cc1ccccc1NC(=O)N1CCN(CC(=O)c2ccco2)CC1	i
COc1ccccc1-c1csc(-c2nnn(-c3ccccc3)c2N)n1	i
COc1ccc(CCC(=O)NCc2sc(-c3ccccc3)nc2C)cc1	i
O=C(Nc1ccc(F)c(Cl)c1)N1CCN(c2cc(N3CCCCC3)ncn2)CC1	i
CCCOc1ccc(S(=O)(=O)N2CCOC3(CCOCC3)C2)cc1	i
CCOC(=O)c1cn(C)c2cc(N3CCCC3)c(F)cc2c1=O	i
C=CCOCC(O)Cn1c(N(C)C)nc2c1c(=O)[nH]c(=O)n2C (centres undefined)	i

Molecules listed so far with bromine, in the order listed:
canonical_smiles	GIRK2 act
Cc1cc(NC(=O)c2ccc(Br)o2)sn1	i
O=C(Cn1cc(S(=O)(=O)N2CCCC2)ccc1=O)Nc1ccc(Br)cc1	i

High-throughput results (PubChem)
